Giardia killer: kills Giardia lamblia | 340,000 tested, 0.15% active | activity change, % at 7.66 µM, hits read low | Giardia lamblia trophozoite viability; in the data active = activity change below about -80%; inconclusive = between about -30% and that limit;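 also: parasites exposed to compound for two days anaerobically before the ATP read; % is scaled to controls: 0 for no effect and ±100 for the full control effect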
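Giardia trophozoites, 100 cells per well, were exposed to compounds for 48 hrs at 37 deg C under anaerobic conditions; viability was then read as ATP content by bioluminescence after 15-30 min at room temperature.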
Menin-MLL TR inh: menin-MLL binding inhibition, Texas Red mutant peptide. O00255. Menin + Texas Red MLL mutant peptide, fluorescence polarization. Potency, µM (series often up to 61.6 µM), for inactives: top-dose FP activity change, negative = inhibition, most hits filed as inhibitors. AID 1768. 270,000 tested, 0.23% active; active = well fitted inhibition curve with a large enough effect in the polarisation, with a control signal flat, not every such curve was filed as active; inconclusive = small, poorly fitted or top-dose-only effect, or effect the other way, or a change in a side signal; inactive = no such curve, though single readings can be large or run the other way; the % refers to the polarisation; also: potency is read from the fitted curve at half-maximal effect; % of control where 0% means no effect; many of its hits are not listed in these tables
BRCA1 expr act: increases BRCA1 expression; 380,000 tested, 1.1% active; Potency, µM (doses to about 46.1 µM), for the others: top-dose activation, most hits filed as activators; MCF7-BRCA1-FFLuc reporter, luminescence, 48 h; response scale: scaled: vehicle 0%, 10 µM genistein 100%; AID 624202; also: potency is read from the fitted curve at half-maximal effect; nearly all actives have a fitted effect of over 80% in size; some results filed as inactive show a strong effect at the top dose
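Luminescence from a BRCA1-driven firefly luciferase in MCF7 cells was read after 48 h compound exposure at 37 C. Data normalized against DMSO and a 10microM genistein activation control, then curve-fitted across the titration.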
FLuc modulator: inhibits or activates purified firefly luciferase, miR-21 counter-screen; P08659; purified FLuc, Km substrates, luminescence inhibition; Potency, µM (doses to about 57.5 µM), inactives show top-dose activity change, negative = inhibition, usual class: inhibitors; 360,000 tested, 6.9% active; AID 588342;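 also: potency is read from the fitted curve at half-maximal effect; plate controls were vehicle for no effect and reference inhibitor for full effect; nearly all actives have a fitted effect of over 55% in size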
Target sequence (P08659 whole entry, looked up): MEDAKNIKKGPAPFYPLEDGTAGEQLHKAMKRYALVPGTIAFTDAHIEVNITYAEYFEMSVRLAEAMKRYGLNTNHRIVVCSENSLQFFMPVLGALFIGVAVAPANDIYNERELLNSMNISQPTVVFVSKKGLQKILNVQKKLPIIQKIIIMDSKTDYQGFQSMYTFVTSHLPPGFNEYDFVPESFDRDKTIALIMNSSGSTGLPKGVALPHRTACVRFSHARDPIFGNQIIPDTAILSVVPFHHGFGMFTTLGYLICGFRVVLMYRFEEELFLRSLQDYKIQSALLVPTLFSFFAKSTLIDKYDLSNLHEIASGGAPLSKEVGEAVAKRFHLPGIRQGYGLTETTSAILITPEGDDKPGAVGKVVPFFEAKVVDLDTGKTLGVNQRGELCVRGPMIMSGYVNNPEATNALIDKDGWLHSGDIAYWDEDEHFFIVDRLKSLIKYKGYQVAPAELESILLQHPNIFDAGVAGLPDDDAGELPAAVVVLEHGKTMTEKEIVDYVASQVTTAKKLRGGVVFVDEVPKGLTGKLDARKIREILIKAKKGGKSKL
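Purified P. pyralis luciferase, 10 nM final, with Km-level 10 uM D-luciferin and 10 uM ATP in 50 mM Tris acetate pH 7.5, 10 mM Mg acetate, 0.01% Tween-20, 0.05% BSA; 6-point qHTS titration about 60 µM downward; luminescence read.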
p53 reactivation: restores transcriptional activity of mutant p53. H1299 p53-A138V BP100-luciferase reporter, luminescence, 24 h. Potency, µM (top dose mostly 92.2 µM), without a hit: top-dose activity change, positive = activation, most hits filed as activators. 320,000 tested, 0.063% active. AID 504706; also: potency is read from the fitted curve at half-maximal effect; % of control where 0% means no effect; nearly all actives have a fitted effect of over 45% in size
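p53-null H1299 cells stably carrying temperature-sensitive p53-A138V and a BP100-luciferase reporter were pinned with compounds (4-point, 1:5 series) and held 24 hrs at 37 deg C. Luminescence was read 10 min after detection reagent.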
NPC1 promoter act: activates the NPC1 promoter; Huh7 NPC1 promoter luciferase reporter, 24 h; Potency, µM (doses to about 9.22 µM), for inactives: at the highest dose activation, actives largely listed as activators; 320,000 tested, 2.4% active; AID 485313;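 also: potency is read from the fitted curve at half-maximal effect; % of control where 0% means no effect; nearly all actives have a fitted effect of over 60% in size; reporter is driven by a mutant NPC1 promoter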
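In 1536-well qHTS, Huh7 cells harboring an NPC1 promoter–luciferase construct received compound for 24 h; activation was quantified by luminescence following luciferase reagent addition.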
Rab9 prom act: activates the Rab9 promoter. Potency, µM (top dose mostly 9.22 µM), for inactives: at the highest dose activation, negative = inhibition, hits mostly activators. Huh7 Rab9 promoter-luciferase reporter, luminescence, 24 h. 320,000 tested, 2.8% active; also: potency is read from the fitted curve at half-maximal effect; % of control where 0% means no effect; nearly all actives have a fitted effect of over 60% in size
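Rab9 promoter-driven luciferase in stably transfected Huh7 cells; 1500 cells/well rested 2 h, exposed to compound in DMSO for 24 h at 37 °C, 5% CO2. Luminescence read 10 min after adding luciferase reagent at ambient temperature.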
ELG1 genotox: genotoxicity induction in ELG1-luciferase HEK293T cells. Potency, µM (highest dose often 46 µM), for the others: at the top dose activity change, positive = activation, hits mostly activators. 330,000 tested, 1.3% active. HEK293T ELG1-luciferase reporter, luminescence, 16 h. AID 504466; also: potency is read from the fitted curve at half-maximal effect; % of control where 0% means no effect; nearly all actives have a fitted effect of over 60% in size
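16 hr compound incubation (37 °C, 5% CO2) of HEK293T cells carrying luciferase-tagged ELG1; luciferase then measured by ONE-Glo luminescence after 30 min at RT.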
Numbers without * were called inactive; ? = inconclusive; / = no result given; [ ] = remark or other dose. Unless noted, calls follow the shape of the dose curve; as a rule, active = well fitted curve in the direction sought with a large enough effect; inconclusive = small, poorly fitted or top-dose-only effect, or another doubt; inactive = no such curve, though single readings can be large; an effect the other way counts as inactive or inconclusive.

SMILES	Giardia killer	Menin-MLL TR inh	BRCA1 expr act	FLuc modulator	p53 reactivation	NPC1 promoter act	Rab9 prom act	ELG1 genotox
COc1ccc2c(c1OC)C(=O)OC2C1c2cc3c(cc2CCN1C)OCO3 (configuration not stated)	-10	0%	-8%	-1%	11%	-3%	3%	-1%
CCC(=O)O[C@@](Cc1ccccc1)(c1ccccc1)[C@@H](C)CN(C)C	/	2%[24.8 µM]	/	/	/	/	/	/
O=[N+]([O-])c1cccc(CN2CCN(Cc3ccc(Br)cc3)CC2)c1	4	-25%	-22%	2%	-2%	-8%	-9%	-7%
CC(=NCCN1CCOCC1)c1c(O)n(C2CCCCC2)c(=O)[nH]c1=O	15	6%	3%	9%	1%	0%	-4%	3%
CC(C)C(=O)c1cn(Cc2ccccc2C#N)c2ccccc12	1	14%	-32%	-2%	-2%	-1%	-12%	-1%
O=C(O)COc1ccccc1	10	-1%	4%	-1%	4%	5%	-3%	-1%
Oc1ccccc1Cl	-11	/	20%	/	3%	/	/	0%
N#CCN1CCN(c2ccc(C(F)(F)F)cc2)CC1	5	-3%	-7%	-1%	-7%	1%	2%	-1%
CC1CC[C@@]2(OC1)OC1C(O)C3C4CC[C@H]5CC(O[C@@H]6O[C@@H](CO)[C@H](OC7OC(CO)C(O)C(OC8OCC(O)C(O)[C@H]8O)[C@@H]7O[C@@H]7OC(CO)[C@H](O)[C@@H](O[C@@H]8OC(CO)C(O)C(O)C8O)C7O)C(O)C6O)C(O)C[C@]5(C)C4CC[C@]3(C)C1C2C (some centres not stated)	/	-9%	/	/	/	/	/	/
CC(=O)c1c(O)n(-c2cccc(Cl)c2)c(=O)[nH]c1=O (tested in a mixture with another compound)	36[activator]	/	-1%	-2%	0%	-3%	-19%	13%
COc1ccccc1/C=N/N=C(/N)N[N+](=O)[O-]	13	6%	-5%	0%	3%	1%	4%	16%
CCOC(=O)/C=C(C)/C=C/CC(C)CCCC(C)C (configuration not stated)	/	1%	/	/	/	/	/	/
Clc1ccc(CCC(Cn2ccnc2)Sc2c(Cl)cccc2Cl)cc1 (configuration not stated)	4	/	-15%	-1%	-14%	-2%	-3%	-2%
O=[N+]([O-])c1ccc([As](=O)(O)O)cc1	/	4%	/	/	/	/	/	/
O=C(O)COc1ccccc1/C=C1\C(=O)NC(=O)N(CCC2=CCCCC2)C1=O	2	/	-18%	0%	0%	-3%	-1%	0%
COc1ccccc1CN1CCCCC1c1cccnc1 (configuration not stated)	9	5%	1%	-1%	11%	0%	6%	4%
CN(C)C(=Nc1ccccc1)P(=S)(N(C)C)N(C)C	-12	-8%	0%	-6%	-1%	-5%	2%	-5%
CCC(=O)OC(Cc1ccccc1)(c1ccccc1)C(C)CN(C)C (configuration not stated)	-26	/	-8%	/	/	/	/	/
C=CCOC(Cn1ccnc1)c1ccc(Cl)cc1Cl (configuration not stated)	-4	-10%	-11%	1%	-5%	-6%	-10%	-1%
CC(C)N(C(=O)CCl)c1ccccc1	2	-23%	-44%	/	/	/	/	/
COc1cccc(N2CCN(Cc3ccc(Cl)cc3)CC2)c1	5	-18%	-16%	1%	3%	-18%	6%	2%
Oc1cc2c(cc1O)[C@H]1c3ccccc3CN[C@H]1CC2	/	-1%[24.8 µM]	/	/	/	/	/	/
CC(C)C12CN3CC(C(C)C)(CN(C1)C3c1cccnc1)C2=O (configuration not stated)	3	3%	13%	4%	-7%	2%	-6%	3%
O=C1C(=O)c2cccc3cccc1c23	6	5%	-65%	1%	0%	-10%	13%	?
N[C@@H](Cc1ccccc1)C(=O)N1C[C@H]2C[C@@H](C1)c1cccc(=O)n1C2	-7	-13%	6%	0%	12%	-5%	4%	-1%

An excerpt from above in order of length of the SMILES, low to high:
SMILES	Giardia killer	Menin-MLL TR inh	BRCA1 expr act	FLuc modulator	p53 reactivation	NPC1 promoter act	Rab9 prom act	ELG1 genotox
Oc1ccccc1Cl	-11	/	20%	/	3%	/	/	0%
CC(C)C12CN3CC(C(C)C)(CN(C1)C3c1cccnc1)C2=O (configuration not stated)	3	3%	13%	4%	-7%	2%	-6%	3%
N[C@@H](Cc1ccccc1)C(=O)N1C[C@H]2C[C@@H](C1)c1cccc(=O)n1C2	-7	-13%	6%	0%	12%	-5%	4%	-1%

A few values from above:
FLuc modulator result of `COc1cccc(N2CCN(Cc3ccc(Cl)cc3)CC2)c1` : 1%
BRCA1 expr act result of `CN(C)C(=Nc1ccccc1)P(=S)(N(C)C)N(C)C` : 0%
Rab9 prom act result of `O=C(O)COc1ccccc1/C=C1\C(=O)NC(=O)N(CCC2=CCCCC2)C1=O` : -1%
p53 reactivation result of `CC(C)C12CN3CC(C(C)C)(CN(C1)C3c1cccnc1)C2=O` (configuration not stated) : -7%

Compounds listed so far that contain nitrogen in an aromatic ring, in the order listed:
SMILES	Giardia killer	Menin-MLL TR inh	BRCA1 expr act	FLuc modulator	p53 reactivation	NPC1 promoter act	Rab9 prom act	ELG1 genotox
CC(=NCCN1CCOCC1)c1c(O)n(C2CCCCC2)c(=O)[nH]c1=O	15	6%	3%	9%	1%	0%	-4%	3%
CC(C)C(=O)c1cn(Cc2ccccc2C#N)c2ccccc12	1	14%	-32%	-2%	-2%	-1%	-12%	-1%
CC(=O)c1c(O)n(-c2cccc(Cl)c2)c(=O)[nH]c1=O (tested in a mixture with another compound)	36[activator]	/	-1%	-2%	0%	-3%	-19%	13%
Clc1ccc(CCC(Cn2ccnc2)Sc2c(Cl)cccc2Cl)cc1 (configuration not stated)	4	/	-15%	-1%	-14%	-2%	-3%	-2%
COc1ccccc1CN1CCCCC1c1cccnc1 (configuration not stated)	9	5%	1%	-1%	11%	0%	6%	4%
C=CCOC(Cn1ccnc1)c1ccc(Cl)cc1Cl (configuration not stated)	-4	-10%	-11%	1%	-5%	-6%	-10%	-1%
CC(C)C12CN3CC(C(C)C)(CN(C1)C3c1cccnc1)C2=O (configuration not stated)	3	3%	13%	4%	-7%	2%	-6%	3%
N[C@@H](Cc1ccccc1)C(=O)N1C[C@H]2C[C@@H](C1)c1cccc(=O)n1C2	-7	-13%	6%	0%	12%	-5%	4%	-1%

Assay outcomes (PubChem BioAssay)

These rows are one share of the data (hit frequency here may not be typical).
